# Vaccinia inh: blocks a specific stage of Vaccinia orthopoxvirus infection. Vaccinia-infected cells, mCherry/Venus stage reporter fluorescence; stronger effect = lower value; some inactives read as strong as hits. activity change (mCherry), % (no concentration beside the values). 0.01% of 89,000 active. AID 1053133;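 active = mCherry past -33% and 40 or more points under the early reporter, replicates agreeing; inconclusive = past -33% without that gap or agreement; tested in A549 cells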;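 note: scaled between vehicle wells and reference inhibitor wells; 23 nL library stock went into each well; one replicate is shown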
# Vaccinia inh Venus: second read-out of Vaccinia inh, no call of its own (marks repeat the call); activity change (Venus), %; measured here: Venus reporter, other viral stage;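 negative = less Venus signal; first of two replicates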
# Active calls of the source: *; ? = inconclusive; · = not tested or not shown; & = joins results of further samples. Some of the compounds tested. The share of hits here may be higher or lower than overall.
# Start of the data: the first 14 compounds, ahead of the listing:
SMILES,Vaccinia inh,Vaccinia inh Venus
C[C@H]1CN([C@@H](C)CO)C(=O)c2cc(NS(=O)(=O)c3cccs3)ccc2O[C@@H]1CN(C)C(=O)Nc1ccc2c(c1)OCO2,35,29
COc1cccc(S(=O)(=O)N(C)C[C@@H]2OCc3cnnn3CCCC(=O)N([C@@H](C)CO)C[C@@H]2C)c1,11&14,12&4
COc1ccccc1S(=O)(=O)N[C@H]1CC[C@@H](CCn2cc(C3CC3)nn2)O[C@@H]1CO,-9,-1
C[C@@H]1CCCCO[C@H](CN(C)Cc2ccc(C(F)(F)F)cc2)[C@H](C)CN([C@H](C)CO)C(=O)c2cc(NC(=O)CCCN(C)C)ccc2O1,?,·
O=C(C[C@@H]1C[C@@H]2c3cc(NC(=O)Nc4ccc(C(F)(F)F)cc4)ccc3O[C@@H]2[C@H](CO)O1)NCc1cccnc1,-12,-5
Cc1ccccc1-c1ccc2c(c1)O[C@H](CN(C)Cc1ccc(C(=O)O)cc1)[C@H](C)CN([C@@H](C)CO)S2(=O)=O,19,9
C[C@@H]1CN([C@H](C)CO)C(=O)Cc2cc(NC(=O)CCN3CCOCC3)ccc2O[C@@H]1CN(C)Cc1ccccc1,3,6
C[C@@H]1CN([C@H](C)CO)C(=O)Cc2cc(NS(=O)(=O)c3ccc(Cl)cc3)ccc2O[C@@H]1CN(C)CC1CCCCC1,-6,-4
CCCC#Cc1cnc2c(c1)C(=O)N([C@H](C)CO)C[C@H](C)[C@@H](CN(C)C(=O)Cc1ccccc1)O2,3,-7
CC(=O)N1CCCCN2[C@H](CO)[C@@H](c3ccc(C#Cc4ccccc4F)cc3)[C@@H]2C1,?,·
Cc1noc(C)c1NC(=O)N(C)C[C@H]1Oc2ncc(C3=CCCC3)cc2C(=O)N([C@H](C)CO)C[C@H]1C,16,4
C[C@H]1CCCCO[C@H](CN(C)S(C)(=O)=O)[C@@H](C)CN([C@@H](C)CO)C(=O)c2cc(NC(=O)c3ccccc3)ccc2O1,4,9
C[C@@H]1CN([C@H](C)CO)S(=O)(=O)c2ccc(C3=CCCC3)cc2O[C@H]1CN(C)Cc1cncnc1,15,9
CCCc1cn(CC[C@@H]2CC[C@@H](NS(=O)(=O)c3ccccc3Cl)[C@@H](CO)O2)nn1,10,16

# Results, from the first entry:
SMILES,Vaccinia inh,Vaccinia inh Venus
C[C@H]1CN([C@@H](C)CO)C(=O)c2cc(NS(=O)(=O)c3cccs3)ccc2O[C@@H]1CN(C)C(=O)Nc1ccc2c(c1)OCO2,35,29
COc1cccc(S(=O)(=O)N(C)C[C@@H]2OCc3cnnn3CCCC(=O)N([C@@H](C)CO)C[C@@H]2C)c1,11&14,12&4
COc1ccccc1S(=O)(=O)N[C@H]1CC[C@@H](CCn2cc(C3CC3)nn2)O[C@@H]1CO,-9,-1
C[C@@H]1CCCCO[C@H](CN(C)Cc2ccc(C(F)(F)F)cc2)[C@H](C)CN([C@H](C)CO)C(=O)c2cc(NC(=O)CCCN(C)C)ccc2O1,?,·
O=C(C[C@@H]1C[C@@H]2c3cc(NC(=O)Nc4ccc(C(F)(F)F)cc4)ccc3O[C@@H]2[C@H](CO)O1)NCc1cccnc1,-12,-5
Cc1ccccc1-c1ccc2c(c1)O[C@H](CN(C)Cc1ccc(C(=O)O)cc1)[C@H](C)CN([C@@H](C)CO)S2(=O)=O,19,9
C[C@@H]1CN([C@H](C)CO)C(=O)Cc2cc(NC(=O)CCN3CCOCC3)ccc2O[C@@H]1CN(C)Cc1ccccc1,3,6
C[C@@H]1CN([C@H](C)CO)C(=O)Cc2cc(NS(=O)(=O)c3ccc(Cl)cc3)ccc2O[C@@H]1CN(C)CC1CCCCC1,-6,-4
CCCC#Cc1cnc2c(c1)C(=O)N([C@H](C)CO)C[C@H](C)[C@@H](CN(C)C(=O)Cc1ccccc1)O2,3,-7
CC(=O)N1CCCCN2[C@H](CO)[C@@H](c3ccc(C#Cc4ccccc4F)cc3)[C@@H]2C1,?,·
Cc1noc(C)c1NC(=O)N(C)C[C@H]1Oc2ncc(C3=CCCC3)cc2C(=O)N([C@H](C)CO)C[C@H]1C,16,4
C[C@H]1CCCCO[C@H](CN(C)S(C)(=O)=O)[C@@H](C)CN([C@@H](C)CO)C(=O)c2cc(NC(=O)c3ccccc3)ccc2O1,4,9
C[C@@H]1CN([C@H](C)CO)S(=O)(=O)c2ccc(C3=CCCC3)cc2O[C@H]1CN(C)Cc1cncnc1,15,9
CCCc1cn(CC[C@@H]2CC[C@@H](NS(=O)(=O)c3ccccc3Cl)[C@@H](CO)O2)nn1,10,16
O=C(C[C@@H]1C[C@@H]2c3cc(NC(=O)NC4CCCC4)ccc3O[C@@H]2[C@@H](CO)O1)NCc1cccc(F)c1,3,1
CO[C@H]1CN(C)C(=O)c2cc(NC(=O)C3CCC3)ccc2OC[C@@H](C)N(C(=O)CN(C)C)C[C@@H]1C,4,1
CC(C)C#Cc1ccc2c(c1)O[C@H](CN(C)Cc1cncnc1)[C@H](C)CN([C@H](C)CO)S2(=O)=O,-4,-11
C[C@H](CO)N1C[C@H](C)[C@H](CN(C)C(=O)c2ccc3c(c2)OCO3)Oc2cc(-c3ccncc3)ccc2S1(=O)=O,12,14
C[C@H](CO)N1C[C@H](C)[C@H](CN(C)C(=O)Nc2ccc(F)cc2)Oc2ncc(C#CC(C)(C)O)cc2C1=O,22,19
C[C@H]1CN([C@@H](C)CO)C(=O)Cc2cc(NC(=O)Cc3cn(C)c4ccccc34)ccc2O[C@H]1CN(C)Cc1ccc(C(=O)Nc2ccccc2N)cc1,-23,-12
CC(C)C#Cc1ccc([C@H]2[C@@H](C#N)N(C(=O)CN(C)C)[C@H]2CO)cc1,-7,-7
C[C@@H]1CN([C@@H](C)CO)C(=O)c2cc(NS(=O)(=O)c3ccc(Cl)cc3)ccc2O[C@@H]1CN(C)C(=O)NC1CCCCC1,-34,-26
C[C@H](CO)N1C[C@H](C)[C@H](CN(C)Cc2ccccn2)Oc2cc(C#C[C@@H](C)O)ccc2S1(=O)=O,23,12
C[C@@H]1CCCCO[C@@H](CN(C)Cc2ccccc2)[C@H](C)CN([C@@H](C)CO)C(=O)c2cc(NC(=O)CCC(F)(F)F)ccc2O1,-26,-9
COc1ccc(CN(C)C[C@H]2Oc3ccc(NC(=O)CCC(F)(F)F)cc3CC(=O)N([C@H](C)CO)C[C@H]2C)cc1,-8,-6
SMILES,Vaccinia inh,Vaccinia inh Venus
CC(C)NC(=O)N(C)C[C@H]1Oc2c(NC(=O)C3CCOCC3)cccc2C(=O)N([C@H](C)CO)C[C@H]1C,8,3
C[C@H]1CN([C@@H](C)CO)C(=O)c2cccc(NC(=O)c3nc4ccccc4s3)c2O[C@H]1CN(C)CC1CC1,-9,-6
CCN(C[C@H]1[C@H](c2ccc(-c3ccccc3)cc2)[C@H](CO)N1C(C)=O)C(C)=O,-9,-7
CCCNC(=O)C[C@@H]1CC[C@@H]2[C@H](COC[C@H](O)CN2C(=O)c2ccc(F)cc2)O1,15,8
CCC(=O)N(C)C[C@H]1Oc2cc(C#CC3CCCC3)ccc2S(=O)(=O)N([C@@H](C)CO)C[C@H]1C,-23,-17
CC=Cc1ccc2n(c1=O)C[C@H]1[C@H](CO)[C@@H](C(=O)N3CCCCC3)[C@@H]2N1C(=O)C1CCC1 (mixture of isomers),-3,-1
CCCN1C[C@H](C)[C@@H](OC)CN(C)C(=O)c2cc(NC(=O)C3CCOCC3)ccc2OC[C@H]1C,-3,2
C[C@@H]1CCCCO[C@H](CN(C)Cc2ccc(Cl)c(Cl)c2)[C@H](C)CN([C@@H](C)CO)C(=O)c2cc(NS(=O)(=O)c3cn(C)cn3)ccc2O1,?,·
COC(=O)[C@@H]1[C@@H](CO)[C@@H]2Cn3c(ccc(-c4ccccc4OC)c3=O)[C@@H]2N1C(=O)c1cnccn1,17,17
O=C(C[C@H]1CC[C@@H]2[C@H](COC[C@H](O)CN2C(=O)c2ccc3c(c2)OCO3)O1)NC1Cc2ccccc2C1,-5,-4
CCC(=O)N(C)C[C@H]1Oc2ncc(C#C[C@@H](C)O)cc2C(=O)N([C@H](C)CO)C[C@@H]1C,12,18
C[C@@H]1CN([C@@H](C)CO)C(=O)c2cc(NC(=O)c3ccncc3)ccc2O[C@@H](C)CCCCO[C@@H]1CN(C)C(=O)C1CCCCC1,5,14
Cc1cccc(S(=O)(=O)N(C)C[C@@H]2OCc3cn(nn3)CCCC(=O)N([C@@H](C)CO)C[C@@H]2C)c1,10,13
C[C@H]1CN([C@@H](C)CO)C(=O)c2cc(-c3ccccc3F)cnc2O[C@H]1CN(C)C(=O)C1CCC1,-1,4
N#C[C@H]1[C@@H](c2ccc(C#CC3CC3)cc2)[C@@H](CO)N1C(=O)Cc1ccccn1,9,2
C[C@@H]1CN([C@H](C)CO)C(=O)c2cc(C#CC3CCCC3)cnc2O[C@@H]1CN(C)S(=O)(=O)c1cccc(F)c1,?,·
COc1cc(CN2CC3(CN(C(=O)Nc4c(C)noc4C)C3)c3c([nH]c4cc(OC)ccc34)[C@H]2CO)cc(OC)c1,18,11
CCC(=O)NC[C@@H]1[C@@H](c2ccc(C3=CCCC3)cc2)[C@@H](CO)N1CC1CC1,-7,-1
CC(C)NC(=O)N1[C@@H](CO)[C@@H](c2ccccc2)C12CN(Cc1ccc(Cl)cc1)C2,-21,-9
CC(C)NC(=O)Nc1ccc2c(c1)C(=O)N([C@@H](C)CO)C[C@@H](C)[C@H](CN(C)Cc1ccccc1)OCCCC[C@@H](C)O2,2,4
N#C[C@H]1[C@@H](c2ccc(C3=CCCC3)cc2)[C@@H](CO)N1C(=O)c1ccccn1,7,-1
COc1ccc2c3c(n(C)c2c1)[C@@H](CO)NCC31CCN(Cc2cc(-c3ccccc3)on2)CC1,?,·
Cc1noc(C)c1NC(=O)N(C)C[C@@H]1Oc2ccc(NS(C)(=O)=O)cc2C(=O)N([C@H](C)CO)C[C@H]1C,19,17
COc1ccc(NC(=O)Nc2ccc3c(c2)C(=O)N([C@@H](C)CO)C[C@@H](C)[C@@H](CN(C)S(=O)(=O)c2ccccc2)O3)cc1,-16,-9
C[C@H](CO)N1C[C@H](C)[C@H](CN(C)C(=O)Nc2ccc3c(c2)OCO3)Oc2c(NC(=O)Nc3ccccc3)cccc2C1=O,-29,-16
SMILES,Vaccinia inh,Vaccinia inh Venus
C[C@@H]1CCCCO[C@@H](CN(C)C(=O)Cc2ccccc2)[C@H](C)CN([C@@H](C)CO)C(=O)c2cc(NC(=O)Cc3ccccc3)ccc2O1,-24,-20
Cc1ccccc1S(=O)(=O)NCC[C@H]1CC[C@@H](NC(=O)C2CCCC2)[C@H](CO)O1,-6,10
C/C=C/c1cnc2c(c1)C(=O)N([C@@H](C)CO)C[C@@H](C)[C@H](CN(C)S(=O)(=O)c1ccccc1F)O2,3,3
C[C@@H]1CN([C@@H](C)CO)C(=O)c2cccc(NC(=O)C3CCCCC3)c2O[C@@H]1CN(C)C(=O)Nc1ccccc1,-20,-3
COCCOC(=O)N1C(=O)[C@@]2(c3cc(C#CCCO)ccc31)[C@H](c1ccccc1OCCO)N1[C@H](c3ccccc3)[C@H](c3ccccc3)OC(=O)[C@H]1[C@@H]2C(=O)N1CCc2cc(OC)c(OC)cc2C1,0,3
Cc1noc(C)c1S(=O)(=O)Nc1ccc2c(c1)C(=O)N([C@H](C)CO)C[C@H](C)[C@@H](CN(C)Cc1ccncc1)OCCCC[C@@H](C)O2,16,5
O=C(C[C@@H]1CC[C@H]2[C@@H](COC[C@@H](O)CN2C(=O)c2ccc3c(c2)OCO3)O1)NCCN1CCCCC1,5,-3
Cc1ccc(S(=O)(=O)Nc2ccc3c(c2)C(=O)N([C@@H](C)CO)C[C@@H](C)[C@H](CN(C)C(=O)Nc2ccc(C(F)(F)F)cc2)OCCCC[C@@H](C)O3)cc1,-2,-10
CN1c2ccc(Br)cc2[C@H]2[C@H](CCN2C(=O)C2CCCCC2)[C@H]1CO,-28,-23
CCC(=O)N1CC2(C1)[C@H](c1ccc(-c3cccc(F)c3)cc1)[C@@H](CO)N2CC1CC1,1,7
C[C@H]1CN([C@@H](C)CO)C(=O)c2cc(NC(=O)Nc3cccc4ccccc34)ccc2O[C@@H]1CN(C)Cc1ccc(C(F)(F)F)cc1,-19,-2
O=C(CN1CCOCC1)NCC[C@H]1CC[C@H](NC(=O)c2ccc3c(c2)OCO3)[C@H](CO)O1,-5,-6
O=C(C1CCC1)N1CC2(C1)[C@@H](c1ccccc1)[C@H](CO)N2C(=O)c1ccccn1,10,12
CO[C@H]1CN(C)C(=O)c2ccc(NC(=O)c3ccccc3F)cc2OC[C@H](C)N(C(=O)c2ccccc2F)C[C@@H]1C,22,18
C[C@H](O)C#Cc1ccc2c(c1)O[C@H](CN(C)C(=O)C1CCC1)[C@@H](C)CN([C@H](C)CO)S2(=O)=O,1,1
C[C@H](CO)N1C[C@H](C)[C@H](CN(C)S(=O)(=O)c2ccccc2)Oc2cc(C#Cc3ccncc3)ccc2S1(=O)=O,?,·
C[C@@H]1CN([C@H](C)CO)C(=O)c2cc(NS(C)(=O)=O)ccc2O[C@@H](C)CCCCO[C@@H]1CN(C)S(=O)(=O)c1cn(C)cn1,14,10
O=C(N[C@H]1CC[C@H](CCNS(=O)(=O)c2ccc(F)cc2)O[C@H]1CO)C1CCOCC1,3,0
C[C@H](CO)N1C[C@H](C)[C@H](CN(C)Cc2ccc(Oc3ccccc3)cc2)Oc2ncc(-c3cccnc3)cc2C1=O,?,·
CO[C@H]1CN(C)C(=O)c2cc(NC(=O)C3CCC3)ccc2OC[C@H](C)NC[C@H]1C,9,9
O=C(C[C@@H]1CC[C@@H](NS(=O)(=O)c2ccccc2F)[C@@H](CO)O1)NCCCN1CCOCC1,6,9
CCC(=O)Nc1ccc2c(c1)C(=O)N(C)C[C@H](OC)[C@H](C)CN[C@H](C)CO2,3,4
CN(C)CC(=O)N1CC2(C1)[C@H](c1ccccc1)[C@@H](CO)N2S(C)(=O)=O,0,10
C[C@@H]1CN([C@H](C)CO)C(=O)Cc2cc(NS(C)(=O)=O)ccc2O[C@H]1CN(C)Cc1ccccc1,9,2
